CDC25B CDK2 inh: human CDC25B-CDK2/CyclinA binding inhibition; z-score (test concentration not listed); AID 1259370; 94,000 compounds, 0.72% hits; HTRF CDC25B-CDK2/CyclinA binding, anti-His/anti-Flag; hits give high values;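 also: score is relative to mean and SD of negative controls; strong numbers were not always called active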
HIV TAR-Tat: HIV-1 TAR-Tat binding disruption; z-score (test concentration not listed); AID 1259389; HIV-1 TAR RNA, Tat peptide displacement FRET; hits give high values; 100,000 compounds, 0.6% hits;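 also: score is relative to mean and SD of negative controls; some compounds called inactive have numbers as strong as hits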
* hit, by the source's call; . = no result given.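 The calls were made as follows: active = z-score from 3 up in half or more of its runs; inactive = the rest.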

SMILES | CDC25B CDK2 inh | HIV TAR-Tat
Cc1ccc(S(=O)(=O)NC(=O)NCCc2cccs2)cc1 | -1.51 | .
C=CCSc1ncc(Cl)c(C(=O)Nc2nnc(C)s2)n1 | 0.83 | 0.69
c1ccc(CN2CCN(c3nc4ccccc4c4nc(-c5cccnc5)nn34)CC2)cc1 | -1.5 | .
O=C(Cn1nnc2ccccc21)NC1Cc2ccccc2C1 | 0.26 | .
NC(=O)N1c2ccccc2CC(=O)c2ccccc21 | . | 0.36
Cc1ccc2nc(C3=C(O)CN(C(C)c4ccccc4)C3=N)[nH]c2c1 (configuration not stated) | -3.24 | 2.63
CCC(CO)NC(=O)C(=O)Nc1c2c(nn1-c1ccc(Cl)cc1)CSC2 (configuration not stated) | . | 1.55
CCOC(=O)C1CCN(c2c(NC3CCCC3)c(=O)c2=O)CC1 | 0.97 | -0.81

Some of the entries so far, field by field.
CCC(CO)NC(=O)C(=O)Nc1c2c(nn1-c1ccc(Cl)cc1)CSC2 (configuration not stated)
- CDC25B CDK2 inh: .
- HIV TAR-Tat: 1.55

CCOC(=O)C1CCN(c2c(NC3CCCC3)c(=O)c2=O)CC1
- CDC25B CDK2 inh: 0.97
- HIV TAR-Tat: -0.81

Going on with the list:
SMILES | CDC25B CDK2 inh | HIV TAR-Tat
CCC1CCCCN1c1c(-c2ccc(C)cc2)c(=O)c1=O (configuration not stated) | . | 3.1
CN(C)c1ccc(NC(=O)C2Cc3ccccc3C(=O)O2)cc1 (configuration not stated) | 1.87 | .
CC(C)N(Cc1ccccc1)S(=O)(=O)c1ccc2c(c1)CCO2 | -0.2 | .
C=C1[C@H]2CC[C@@]3(C)[C@H](c4ccoc4)OC(=O)C[C@]13O[C@H]1C[C@H](O)C(C)(C)[C@H](CC(=O)OC)[C@]12C | . | 1.74
C=CC1(C)CC(=O)C2(O)C(C)(O1)C(OC(C)=O)C(O)C1C(C)(C)CCC(O)C12C (configuration not stated) | -2.19 | .
CCc1ccc(-n2nnc(-c3nc(-c4ccc(OC)cc4)no3)c2N)cc1 | . | 0.33
CC1(C)CC2(CCO1)OC(=O)CC2C(=O)Nc1ccccc1Cl (configuration not stated) | -2.08 | .
Cc1ccc(C)c(NC(=O)N2CCN(c3nc(C)cc(N4CCOCC4)n3)CC2)c1 | . | 0.3

The list goes on.
SMILES | CDC25B CDK2 inh | HIV TAR-Tat
Fc1ccccc1CSc1nnc(C2CCNCC2)o1 | -1.77 | -0.66
CC1CN(C(=O)CCS(=O)(=O)c2ccc3c(c2)n(C)c(=O)c(=O)n3C)c2ccccc2O1 (configuration not stated) | . | 1.65
COc1ccc(S(=O)(=O)n2nc(-c3ccc(Cl)cc3)cc2N)cc1 | -1.35 | -0.12
CC1CC(C)CN(C(=O)c2noc3c2COc2ccccc2-3)C1 (configuration not stated) | -0.07 | 0.71
O=C(Cn1cnc2c(nnn2Cc2ccccc2F)c1=O)N1CCc2ccccc21 | -0.79 | -0.21
O=C(CSc1nnc2sc3ccccc3n12)N1CCc2ccccc21 | -0.9 | .
Cc1nc(N2CCN(C)CC2)cc(N2CCN(S(=O)(=O)c3ccccc3)CC2)n1 | 1.68 | -0.07
Cc1csc(SCC(=O)NNC(=O)c2c(F)cccc2Cl)n1 | -0.61 | .

(next part)
SMILES | CDC25B CDK2 inh | HIV TAR-Tat
CCOC(=O)c1cc(C(C)(C)C)n(CCSC)c1C | -0.67 | .
COC(=O)c1cc(S(=O)(=O)n2nc(C)cc2C)c(N2CCCC2)cc1N1CCCC1 | -1.11 | -0.6
C/C(=N\Nc1ccccc1)c1csc(-c2ccc(OCC(F)(F)F)nc2)n1 | -0.53 | .
CC1CCN(C(=O)c2cc3sccc3n2C)CC1 | 0.3 | 1.33
C[C@@H]1C(=O)[C@H](C)[C@@H](c2cccs2)N(C(=O)NC2CCCC2)[C@H]1c1cccs1 | -2.33 | -0.66
CCC(Nc1ncnc2ccccc12)C(=O)O (configuration not stated) | -0.14 | -1.07
COCCOC(=O)c1ccc(-n2nnc3c(sc4nc(C)cc(COC)c43)c2=O)cc1 | -0.22 | 0.24
O=C(c1noc2c1COc1ccccc1-2)N1CCN(c2ccccn2)CC1 | -1.08 | 1.5

The listing continues:
SMILES | CDC25B CDK2 inh | HIV TAR-Tat
COCCN1C(=O)c2[nH]nc(-c3ccccc3O)c2C1c1cccc(O)c1 (configuration not stated) | -0.23 | -0.68
CC(C)Sc1ccc2nnc(-c3ccc(F)cc3)n2n1 | -1.16 | .
CCCCc1nn2cc(-c3ccc(F)cc3)nc2s1 | -0.6 | 1.37
CCn1nccc1C1CCCN1C(=O)c1c(Cl)cnn1C (configuration not stated) | -1.81 | 0.23
CCc1cc(NCc2ccc(C)cc2)n2ncnc2n1 | -1.34 | 0.13
O=C(c1ccccc1)N1CCc2ccc(CNS(=O)(=O)c3cccc4nsnc34)cc21 | . | 2.42
O=S(=O)(NCCc1nc(-c2ccccc2Cl)no1)c1ccc(F)cc1 | 0.87 | 0.59
Cc1ccc(S(=O)(=O)NC(=O)N2CCCN(c3nccc(C(F)(F)F)n3)CC2)cc1 | 0.21 | .

Further structures follow.
SMILES | CDC25B CDK2 inh | HIV TAR-Tat
COc1ccc(-c2nc3c(s2)CN(S(=O)(=O)c2cccc4nsnc24)CC3)cc1OC | . | 0.43
CN1CCN(CCNC(=O)CCC(=O)N2CC3CCCN3c3ccccc32)CC1 (configuration not stated) | . | -1.29
CNC(=O)c1c(NC(=O)c2cc(-c3ccc4c(c3)CC(C)O4)on2)sc2c1CCCC2 (configuration not stated) | -0.17 | 2.05
O=C(C1COc2ccccc2O1)N1CCn2c(nc3ccccc32)C1 (configuration not stated) | -2.53 | .
O=C(Cn1ncc2c3ccccc3n(Cc3ccccc3)c2c1=O)N1CCc2ccccc2C1 | -1.74 | -0.55
Cc1cc2c(cc1S(=O)(=O)NCC1CCCO1)n(C)c(=O)c(=O)n2C (configuration not stated) | . | 1.08
CCc1cc2c(NCCc3ccsc3)ncnc2s1 | . | 1.91
Cc1nc(N(C)C)ncc1C(=O)NCc1ccco1 | . | 1.21

Reformatted with each value named: three of the compounds above.
compound: CN1CCN(CCNC(=O)CCC(=O)N2CC3CCCN3c3ccccc32)CC1 (configuration not stated)
- CDC25B CDK2 inh: .
- HIV TAR-Tat: -1.29
compound: O=C(C1COc2ccccc2O1)N1CCn2c(nc3ccccc32)C1 (configuration not stated)
- CDC25B CDK2 inh: -2.53
- HIV TAR-Tat: .
compound: Cc1nc(N(C)C)ncc1C(=O)NCc1ccco1
- CDC25B CDK2 inh: .
- HIV TAR-Tat: 1.21

(further entries)
SMILES | CDC25B CDK2 inh | HIV TAR-Tat
Cc1ccc(-c2cn3c(n2)sc2cc(C(=O)N4CCN(c5ncccn5)CC4)ccc23)c(C)c1 | . | 1.42
CCn1nc(C)cc1-c1nnc(SCC(=O)Nc2ccccc2)n1CCCOC | -1.25 | .
CCC1CN(C(=O)N2CCC(C(=O)NCCCN3CCc4ccccc4C3)CC2)c2ccccc2O1 (configuration not stated) | . | 1.28
CCN1C(=O)N(c2cc(C)ccc2C)C2CS(=O)(=O)CC21 (configuration not stated) | . | 0.11
CCOc1ccc(S(=O)(=O)Nc2cc(C)ccn2)cc1 | 0.08 | 2.19
Cc1cc2c(c(=O)n1CC1CCCO1)C(c1ccccc1F)C(C#N)=C(N)O2 (configuration not stated) | -0.87 | .
COC(=O)c1c(NC(=O)c2ccc(OC)c(OC)c2)sc2c1CCC2 | -2.32 | 1.35
CC1CC(C)CN(S(=O)(=O)c2ccc3c(c2)oc(=O)n3CC(=O)N(C)Cc2ccco2)C1 (configuration not stated) | -0.71 | 0.5

(list continues)
SMILES | CDC25B CDK2 inh | HIV TAR-Tat
C=CCNc1nnc(C)c2nnn(Cc3ccccc3Cl)c12 | 0.16 | 0.8
N=C1C(c2nc3ccccc3[nH]2)=C(O)CN1c1ccc(C(=O)O)cc1 | -3.61 | 0.9
O=C1C(=O)N(CCCn2ccnc2)C(c2ccco2)/C1=C(\O)c1ccc(Cl)cc1 (configuration not stated) | -0.84 | 1.6
O=C(c1cc2c(s1)-c1ccccc1S(=O)(=O)C2)N1CCc2ccccc2C1 | -8.9 | -0.9
CN(C1CCCCC1)S(=O)(=O)c1ccc(-c2ccc(=O)[nH]n2)s1 | . | -0.89
COc1ccc(Cc2nnc(SC)[nH]c2=O)cc1OC | -1.67 | .
CSc1cccc(NC(=O)c2noc3c2CCc2sccc2-3)c1 | . | -0.42
CC1=C(C(=O)OC2CCCC2)C(c2ccccc2)C2=C(CC(c3ccccc3)CC2=O)N1 (configuration not stated) | -0.8 | 1.06

(list continues)
Compound	CDC25B CDK2 inh	HIV TAR-Tat
O=C(O)CN1C(=O)C2CCCN2c2ccc(C(=O)N3CCCC3)cc21 (configuration not stated)	.	-0.49
COC(=O)c1cscc1NC(=O)CC(CC(=O)O)c1ccccc1 (configuration not stated)	-2.24	.
COC(=O)C1C(=O)C2=C(CC1C)NC(C)=C(C(=O)OC1CCCCC1)C2c1ccc(OC)cc1OC (configuration not stated)	-1.06	1.07
CCN(Cc1ccccc1)S(=O)(=O)c1ccc2c(c1)C(C)(C)C(=O)N2C	.	0.64
CC1(C)CC(=O)C=C(NCCCn2ccnc2)C1	-3.24	-1.96
CSc1nncc(-c2ccc(Cl)cc2)n1	-1.47	.
COC(=O)c1cc(=O)c2ccc(OC)cc2o1	-0.5	1.76
CCOC(=O)c1nc(N(C)c2ccccc2F)c2ccccc2n1	.	1.77
COC(=O)c1c[nH]n2c(=O)cc(Cn3c(=O)cc(C)c4c(C)nn(-c5ccccc5)c43)nc12	.	1.28
CC(C)(CCOC(=O)c1ccc([N+](=O)[O-])o1)Nc1ccc(C(F)(F)F)cc1[N+](=O)[O-]	-1.22	.
COc1ccc(Nc2nc3ccccc3nc2-n2nc(C)cc2C)cc1	-0.76	-0.02
C=CCn1c(SCC(=O)NN2CC(=O)N(c3ccccc3)CC2=O)nnc1-c1cccs1	-0.26	.
Cc1ccc(S(=O)(=O)[C@H]2CS(=O)(=O)C[C@@H]2NCCc2ccc(F)cc2)cc1	0.25	-0.19
O=C1CSC(=O)N1CCN=C1NS(=O)(=O)c2ccccc21	-1.28	.
COc1ccc(OC)c(S(=O)(=O)Nc2ccc3oc4c(c3c2)C(=O)CCC4)c1	-0.91	0.96
Cc1cccc(Cn2c(C3CCCO3)nc3ccccc32)c1 (configuration not stated)	-0.98	0.54
c1ccc(Nc2nc3c(s2)CCCC3)cc1	-2.33	.
Cc1ccc(C2CC(=O)N3CN(C)CSC3=C2C#N)cc1 (configuration not stated)	0.82	0.37
CSc1nc2c3c(sc2c(=O)[nH]1)CC(C)(C)OC3	-1.28	-0.22
CCN1CCN(C(=O)c2nn(C)c3c2CS(=O)(=O)c2ccccc2-3)CC1	-2.71	1.64
Cc1ccc2c(c1)N(Cc1ccccc1Cl)C=NS2(=O)=O	.	-0.6
O=C(CSc1nc2ccccc2[nH]1)Nc1ccc(Br)cc1	-2.67	2.28
COc1ccc(-c2nc(CSc3nncn4c3cc3sccc34)c(C)o2)cc1OC	.	-1.48
O=C(NCCN1CCN(c2nccc(C(F)(F)F)n2)CC1)c1ccccc1	-1.28	.
COC(=O)C1CN(C(=O)COc2ccccc2OC)c2ccccc2O1 (configuration not stated)	-2.07	0.44

Shown with values under each structure: entries from further up
Below each SMILES: CDC25B CDK2 inh	HIV TAR-Tat
Cc1ccc(C2CC(=O)N3CN(C)CSC3=C2C#N)cc1 (configuration not stated)
→ 0.82	0.37
CSc1nc2c3c(sc2c(=O)[nH]1)CC(C)(C)OC3
→ -1.28	-0.22
CCN1CCN(C(=O)c2nn(C)c3c2CS(=O)(=O)c2ccccc2-3)CC1
→ -2.71	1.64
Cc1ccc2c(c1)N(Cc1ccccc1Cl)C=NS2(=O)=O
→ .	-0.6
O=C(CSc1nc2ccccc2[nH]1)Nc1ccc(Br)cc1
→ -2.67	2.28

(continued)
Compound	CDC25B CDK2 inh	HIV TAR-Tat
COc1ccc(-c2onc(C)c2C)cc1S(=O)(=O)Nc1ccc(Br)cc1F	.	0.02
Cc1cccc(Nc2nc(-c3ccccc3)cs2)n1	0.18	1.14
CCCCN[C@H]1CS(=O)(=O)C[C@@H]1S(=O)(=O)c1ccc(Cl)cc1	-0.46	-1.16
CCOc1ccc(OCC)c(NS(=O)(=O)c2cc(-c3onc(C)c3C)ccc2OC)c1	.	0.8
O=C(CCS(=O)(=O)c1ccc2c(c1)NC(=O)CO2)Nc1ccccc1F	.	1.07
O=C(Nc1ccccc1Br)N1CCC(CN2CCCC2)CC1	.	1.67
O=C(CSc1nc2c(c(=O)n1Cc1ccccc1)SCC2)NCc1ccc2c(c1)OCO2	.	1.45
Cc1cc(C)c2c(n1)nn1c(C)c(CCC(=O)N3CCOCC3)c(C)nc21	0.28	3.14
COc1ccc(OC)c(CNS(=O)(=O)c2cc(CN3C(=O)c4cccnc4C3=O)ccc2OC)c1	.	3.1
Cc1ccc(C2=Nc3cc(C)c(C)cc3NC(=O)C2)cc1	-0.84	-1.34
COc1cc2c(cc1OC)C(c1cc3c(cc1Br)OCO3)CC(=O)N2 (configuration not stated)	-0.19	.
CNC(=O)OCc1ccc(-c2ccc(Cl)cc2)o1	-1.12	2.41
CCN(CC)c1cc2c(cc1F)c(=O)c(S(=O)(=O)c1ccccc1)cn2CC	.	0.13
CCC(C)NS(=O)(=O)c1cc2c3c(c1)CCN3C(=O)CC2 (configuration not stated)	.	1.66
O=S(=O)(NCCc1csc(-c2ccc(F)cc2)n1)c1cccs1	.	0.06
O=C(Nc1[nH]c2cc([N+](=O)[O-])ccc2c1-c1ccccc1)c1cccs1	-1.36	.
CC(=O)Nc1cccc(F)c1/C(N)=N/OC(C)=O	-0.77	.
CC(C)N(Cc1nc(-c2ccc(Cl)cc2)no1)C(=O)N1CCOCC1	-0.93	0.06
CCOC(=O)C(=CNc1ccc(N2CCOCC2)cc1)C(=O)OCC	-3.06	.
CCC(C(=O)NC1CCCc2ccccc21)n1nc(C)c2sc3ccccc3c2c1=O (configuration not stated)	-0.59	1.54
CC(=O)N1c2ccc(S(=O)(=O)N3CCOCC3)cc2CC1C(=O)NC1CC1 (configuration not stated)	.	1.85
Cc1cc(C(F)(F)F)cc(NNC(=O)Nc2ccc(Cl)cc2Cl)n1	-2.55	.
